CapD inh: CapD enzyme inhibition; hit rate 0.23% among 140,000; purified CapD enzyme, fluorescence intensity read-out; hits give low values; some hits fall short of the stated cut; z-score (no concentration beside the values);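 active means z-score under -4 in either of two replicates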;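 further: stock transfer was 100 nL into about 40 µL; score is relative to mean and spread of the plate; one replicate is shown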
AID504770: growth inhibitors of E. coli YBA685 in a screen for V. cholerae RctB (chromosome II replication) inhibitors; E. coli YBA685 rctB-dependent plasmid, OD600 growth, 3 h; hits give low values; z-score (no concentration beside the values); AID 504770; hit rate 0.27% among 130,000;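 active means z-score under -2 on both plates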;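 further: wells of about 30 µL received 100 nL stock; score is relative to mean and SD of the test wells; the first replicate is given; strong numbers were not always called active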
* = called active by the depositor; · = no result given; & = joins results of further samples.

SMILES | CapD inh | AID504770
CCOc1ccc2c(c1)-c1c(ssc1=S)C(C)(C)N2C(=O)CSc1nc2ccccc2o1 | -0.045 | ·
CCn1c(CNC(=O)CSc2nnc(C)n2-c2ccc(C)cc2)cc2ccccc21 | · | 0.95
CC(C(=O)NN)n1nnc(-c2cc(C(F)(F)F)cc(C(F)(F)F)c2)n1 (stereo not given) | 0.17 | -0.25
CCOC(=N)c1cccc(C(F)(F)F)c1 | 0.51 | ·
Cc1ccc2c(CN(C)Cc3ccccc3)cc(=O)oc2c1 | 0.055 | -1.1
O=C(O)CSCC(=O)Nc1ccc(Oc2cccc(C(F)(F)F)c2)nc1 | 0.78 | 1.9
CCO/C(C)=N\Oc1cc(=O)oc2ccccc12 | · | -0.45
Cc1ccc(CN2C(=O)CSc3ccc(NC(=O)Nc4cccc5ccccc45)cc32)cc1 | -0.015 | 2
CCOc1ccc(CN2CCN(C(=O)c3ccco3)CC2)cc1 | · | -0.05
CO/N=C/c1cc([N+](=O)[O-])ccc1Sc1cccc(Cl)c1Cl | -0.45 | ·
N#CC(Sc1ccccc1)c1ccccc1 (stereo not given) | -0.41 | -0.05
CCOc1ccc(CC(=O)NN2CCOCC2)cc1OCC | 0.76 | -0.2
O=C(c1ccccc1)c1c[nH]c(C(=O)NCCCn2ccnc2)c1 | -0.12 | 0.7
N#Cc1c(Cl)nsc1-c1ccccc1 | -0.38 | -0.9
CC(=O)N1CCc2cc(S(=O)(=O)N3CCCCC3C)ccc21 (stereo not given) | -3.9 | -0.45
O=C(Nc1ccc2oc(-c3cccc(Br)c3)nc2c1)c1ccc([N+](=O)[O-])cc1 | -0.57 | ·
CC1(C)CC(=O)C2=C(C1)OC1=C(C(=O)CC(C)(C)C1)C2c1ccc(-c2ccccc2[N+](=O)[O-])o1 | -0.27 | ·
O=C1c2ccccc2-c2nn(C(=O)c3cc4c(s3)CCC4)c3cccc1c23 | · | 0.45
Cc1c(CC(Cl)(Cl)Cl)c2c(n1-c1ccc([N+](=O)[O-])cc1)CC(C)(C)CC2=O | -0.19 | ·
O=C(Nc1ccccc1C(=O)NC1CCCCC1)c1ccco1 | -0.43 | -0.25
N#Cc1c(-c2ccco2)c2c([nH]c1=S)CCC2 | · | -0.1
CCOc1ccc(NC(=O)c2cc3cc(Br)ccc3oc2=O)cc1 | -0.34 | 0.65
CCOC(=O)c1ccc(NC(=O)CSc2nc3ccccc3c(=O)n2CCCC(=O)NCC2CCCO2)cc1 (stereo not given) | -0.15 | ·
CCOC(=O)c1sc2nc3c(cc2c1N)CN(C)CC3 | 0.36 | -0.3
COc1ccc(N2CCN(C(=O)COC(=O)Cn3c(C)csc3=O)CC2)cc1 | · | -0.1

Entries of single compounds as entered above.
CCOc1ccc2c(c1)-c1c(ssc1=S)C(C)(C)N2C(=O)CSc1nc2ccccc2o1 is listed with CapD inh: -0.045; AID504770: ·
CC(=O)N1CCc2cc(S(=O)(=O)N3CCCCC3C)ccc21 (stereo not given) is listed with CapD inh: -3.9; AID504770: -0.45

Reprinted at random: six entries already listed, in no set order.
SMILES | CapD inh | AID504770
CC(C(=O)NN)n1nnc(-c2cc(C(F)(F)F)cc(C(F)(F)F)c2)n1 (stereo not given) | 0.17 | -0.25
CCOc1ccc(CN2CCN(C(=O)c3ccco3)CC2)cc1 | · | -0.05
CCOc1ccc(CC(=O)NN2CCOCC2)cc1OCC | 0.76 | -0.2
O=C(Nc1ccccc1C(=O)NC1CCCCC1)c1ccco1 | -0.43 | -0.25
CCOC(=O)c1sc2nc3c(cc2c1N)CN(C)CC3 | 0.36 | -0.3
CO/N=C/c1cc([N+](=O)[O-])ccc1Sc1cccc(Cl)c1Cl | -0.45 | ·

The list goes on.
SMILES | CapD inh | AID504770
Cc1ccc(N2C(=O)C3C4c5ccccc5C(C=O)(c5ccccc54)C3C2=O)cc1 (stereo not given) | -0.21 | ·
On1nnc2cc(C(F)(F)F)ccc21 | -0.84 | -0.7
COCCn1cnnc1SCC(=O)c1ccc(S(=O)(=O)N2CCCC2)cc1 | · | 0.75
Cc1nn(C2CCS(=O)(=O)C2)c2nc(C3CC3)cc(C(=O)O)c12 (stereo not given) | · | 0.6
CCOC(=O)C1=C(C)NC(=S)NC1c1cccs1 (stereo not given) | -1.4 | ·
CCN(CC)C(=O)Cn1cc(C(=O)c2ccco2)c2ccccc21 | -1.9 | -0.7
C(#CC1(N2CCOCC2)CCCCC1)c1ccccc1 | 0.18 | -0.85
O=C(CN1C(=O)c2ccccc2S1(=O)=O)N1N=C(c2ccc(Cl)cc2)CC1c1ccco1 (stereo not given) | · | -0.05
Cc1c(-c2ccnc(-c3ccccc3)n2)sc2nc(C(F)(F)F)nn12 | -0.48 | -0.35
O=C(Oc1cc(OC(=O)c2ccco2)cc(OC(=O)c2ccco2)c1)c1ccco1 | -0.37 | 2.5
COc1ccc(-c2nnc(SCC(=O)NC(C)(C)C)nc2-c2ccc(OC)cc2)cc1 | -1.4 | ·
N#CC(C(N)=O)=C1CCCCCC1 | 0.94 | -1.1
CC1CN2CCC3=C(CCCC3)C2(C)C1 (stereo not given) | · | -0.2
COC(=O)/C=C/C(=C\Nc1ccc(OC)cc1)S(=O)(=O)c1ccccc1 | -0.8 | ·
C1=C(CCNc2nn3nnnc3c3ccccc23)CCCC1 | 3 | 0.2
O=c1[nH]c2sc3c(c2c2nc(-c4cc(-c5ccccc5)nn4-c4ccccc4)nn12)CCC3 | · | -0.05
CC1CN(/C(N)=N/S(=O)(=O)c2ccc(Cl)c(Cl)c2)CC(C)O1 (stereo not given) | 0.45 | -0.5
CN(Cc1ccc(Br)s1)Cn1nnc(-c2ccccc2)n1 | · | 0.45
O=C(c1ccc2c(=O)n(Cc3ccc(Cl)cc3)c(=S)[nH]c2c1)N(CCO)Cc1ccccc1 | -0.62 | ·
CCn1c(C)c(C(=O)O)c2cc(OC)ccc21 | · | -0.7
Brc1ccccc1-c1nc2c3c(-c4ccccc4)c(-c4ccccc4)oc3ncn2n1 | 11 | ·
CCCN(CCC)S(=O)(=O)c1ccc(C(=O)OCCN2C(=O)c3cccc4c(N5CCOCC5)ccc(c34)C2=O)cc1 | -0.045 | ·
O=C(c1ccccc1)c1sc(Nc2ccc3c(c2)OCCO3)nc1-c1ccccc1 | -1.5 | 1.6
CON/C=N/c1nc2nccc(C(C)Oc3ccc(Cl)cc3C)n2n1 (stereo not given) | 0.015 | ·
COc1ccc(-c2nc3cccc(C)n3c2NC(C)(C)C)cc1O | · | 2.8

A second format for some results above.
structure	CapD inh	AID504770
CC1CN(/C(N)=N/S(=O)(=O)c2ccc(Cl)c(Cl)c2)CC(C)O1 (stereo not given)	0.45	-0.5
CN(Cc1ccc(Br)s1)Cn1nnc(-c2ccccc2)n1	·	0.45

Next section:
SMILES | CapD inh | AID504770
CC(O)c1nc2ccc(Oc3ccc4nc(C(C)O)[nH]c4c3)cc2[nH]1 (stereo not given) | · | 0.55
N#C/C(=C\c1ccc(-c2cc(C(F)(F)F)ccc2Cl)o1)C(=O)O | · | 0.65
CCc1ccc(C2(O)CC(C(F)(F)F)=NN2C(=O)c2ccc(C)cc2)cc1 (stereo not given) | 1 | ·
COc1ccc(-c2c(C#N)nnn2-c2cc(C(F)(F)F)cc(C(F)(F)F)c2)cc1 | 1.4 | -0.7
Cn1ccnc1C(=O)c1cc(=O)c2ccccc2o1 | -0.52 | -0.2
Oc1cccc(C=NCc2ccccc2)c1 | 0.055 | 0.1
CN1[C@@H](CC(=O)c2ccccc2)CCC[C@H]1C[C@H](O)c1ccccc1 | -0.38 | ·
Cc1csc(=O)n1CC(=O)O | · | -0.45
CCn1c(=O)cc(OCC(=O)N2CCN(c3ccccc3)CC2)c2ccccc21 | 0.24 | 0.45
S=c1sc2ccccc2n1CN1CCCCC1 | · | -1.6
Cc1ccc(C(c2c(O)ccc3ccccc23)N2CCOCC2)o1 (stereo not given) | · | -1.8
Cn1c2ccc(Br)cc2c2nnc(SCC(=O)N=C3NC(=O)CS3)nc21 | 9.6 | 1.6
O=C(CSc1nnc(NC(=O)CN2CCCCC2)s1)Nc1ccc(Br)cc1 | 0.39 | ·
O=C(O)C1CC(=O)N(c2ccc(-c3csnn3)cc2)C1 (stereo not given) | -0.15 | -0.35
C=Cc1c(C)c2cc3nc(cc4[nH]c(cc5nc(cc1[nH]2)C(C)=C5CCC(=O)O)c(CCC(=O)OC)c4C)[C@@]1(C)C3=CC=C(C(=O)OC)C1C(=O)OC (stereo not given in full) (tested in a mixture with another compound) | -0.23 | ·
COc1cc(OC)c(-c2nc(-c3ccccc3)c(-c3cccs3)[nH]2)cc1OC | -0.7 | -0.75
CC(=O)Nc1ccc(Oc2nnc(-c3ccccc3)c3ccccc23)cc1 | -0.34 | ·
Cc1ccccc1C(=O)Nc1c(C(=O)N2CCOCC2)oc2ccccc12 | -1.4 | -0.1
Cc1cc(C)nc(SCC(=O)Nc2nc(=O)c3ccccc3s2)n1 | · | -0.2
Cc1cc(NC(=O)Nc2ccc3c(c2)OCCO3)c(C(F)(F)F)o1 | -0.95 | -0.2
CN1/C(=C\P(=S)(N2CCOCC2)N2CCOCC2)C(C)(C)c2ccccc21 | · | 0.25
O=C(NCCc1ccc(O)c(O)c1)C(F)(F)F | 0.14 | 0.6
Cc1c(C(=O)COc2nc(-c3cccs3)cc(C(F)(F)F)c2C#N)sc2ccc(Cl)cc12 | 0.82 | ·
CN1C(=O)Cc2ccccc21 | 0.42 | -0.35
Cc1cccc(CO/N=C/c2c(-c3ccccc3)nc3ccc(Cl)cn23)c1 | 1 | ·

Following part:
SMILES | CapD inh | AID504770
COc1cc(OC)c(Nc2nc3ccccc3n3cnnc23)cc1Cl | 1.3 | 1.2
CC1(C)OC(=O)C(=CNC(C(=O)O)c2ccccc2)C(=O)O1 (stereo not given) | 0.05 | -0.4
CC1CC(C)CN(C(=O)CSc2nnc(-c3ccccc3)o2)C1 (stereo not given) | · | 2.3
CS(=O)(=O)c1sc(C(=O)NC(=S)Nc2ccc(OC(F)(F)F)cc2)c2c1C=CCC2 | 0.35 | 1.4
O=c1c2c3c(sc2nc2sc(C4CC4)nn12)CCCC3 | · | 0.05
COc1ccccc1/C=C1/N=C(c2ccc(OC)c(OC)c2)N(c2cccc(Cl)c2C)C1=O | -1.1 | ·
CC(=O)N1CCC(N(Cc2ccco2)C(=O)NC23CC4CC(CC(C4)C2)C3)CC1 | 0.06 | 0.3
Cc1ccc(S(=O)(=O)CCC#N)cc1C | 0.055 | -0.95
CCOC(=O)c1cc(C#N)c(N2CCN(C(=O)OCC(C)N(Cc3ccccc3)Cc3ccccc3)CC2)nc1C(F)(F)F (stereo not given) | 6.7 | ·
COc1cccc(C(=O)Nc2noc3ccccc23)c1 | -1.2 | 0.85
COc1ccc(NS(=O)(=O)/C=C/c2ccccc2)cc1 | · | 1.4
C=CCSc1nnc(-c2ccc(C(C)(C)C)cc2)n1Cc1ccco1 | 0.91 | -0.35
O=C(O)CSc1nc2nc[nH]c(=O)c2[nH]1 | -0.76 | ·
O=c1n(S(=O)(=O)c2ccccc2)c2ccccc2n1S(=O)(=O)c1ccccc1 | 0.36 | 1.6
O=C(NCc1nnc(SC/C=C/c2ccccc2)o1)c1ccccc1F | -0.55 | -1.4
CC(=O)N1CCc2cc(S(=O)(=O)CCC(=O)Nc3c(C)cccc3C)ccc21 | -0.99 | -0.3
c1ccc(-n2cc3c(c2)CCc2cn(-c4ccccc4)cc2CC3)cc1 | -0.24 | 0.25
COc1ccccc1Nc1n[nH]c(=S)s1 | -1.4&-1.9 | -0.4
CCCC(=O)Nc1nc(C(=O)OCC)cs1 | · | -0.35
COc1ccc(S(=O)(=O)N2CCCN(S(=O)(=O)c3ccc(OC)c(OC)c3)CC2)cc1OC | -0.74 | ·
C/C(=N\NC(N)=O)C1CC(c2ccccc2)C(=O)O1 (stereo not given) | · | -0.05
CC(C)c1cccc(C(C)C)c1OCCNCCO | 0.29 | -0.65
CC1(CO)CSC(Nc2cccnc2)=N1 (stereo not given) | -0.71 | -0.45
CC(C)N1CCC2(CC1)C(C#N)=C(O)NC1=C2C(=O)CC(C)(C)C1 | 7.8 | -0.35
Cc1cc2[nH]c(=S)[nH]c2cc1C | 2 | -0.3

Continuation.
SMILES | CapD inh | AID504770
C(#Cc1cccc(-c2nc(-c3ccccc3)c(-c3ccccc3)[nH]2)c1)c1ccccc1 | -0.2 | ·
CC(C)C(NS(=O)(=O)c1cccc2nsnc12)C(=O)O (stereo not given) | -0.63 | -0.15
COc1ccc(Br)cc1/C=N/n1cnnc1 | 0.61 | 0.15
N#CC1(C#N)[C@@H]2c3ccccc3C=CN2[C@@H](C(N)=O)[C@@H]1c1ccc(F)c(Br)c1 | 8.4 | ·
C=CCn1cc(C(=O)NCC(OC)OC)c(=O)c2cc(S(=O)(=O)N3CCC(C)CC3)ccc21 | -0.29 | -0.55
CC(C)(C)NC(=S)Nc1cc(C(F)(F)F)ccc1N1CCCCC1 | 0.25 | 1.3
O=C1CCCCCN1CO | -0.29 | 1
Oc1ccc(-n2ccnc2)cc1 | · | -1
O=C1/C(=C/c2ccc(-c3ccc(Br)cc3)o2)C=C(c2ccccc2)N1c1ccccc1Cl | 2.5 | ·
Cc1cc(OCC(=O)NCc2ccco2)c(C)cc1Br | -0.75 | 1.8
O=S1(=O)N=C(N2CCc3ccccc3C2)c2ccccc21 | · | -1.4
CCC(CO)NC(=O)c1cn(-c2ccccc2)nc1-c1ccc(Cl)cc1 (stereo not given) | 0 | -0.4
N#Cc1c(C(F)(F)F)nc(=O)n2ccccc12 | · | -0.95
CCCCC(=O)NCc1ccc(F)cc1 | 0.21 | -0.7
Cc1ccc(NC(=S)NNC(C)(C)C)cc1Cl | 0.85 | ·
COc1ccc(N=c2oc3ccc(Br)cc3cc2-c2nc(-c3ccc(Cl)cc3)cs2)cc1 | -0.045 | ·
CC(C)c1cc(C(C)C)c(S(=O)(=O)NCc2ccccc2)c(C(C)C)c1 | 0.16 | 0
O=C(NCCONC(=O)c1c(F)cccc1F)c1c(F)cccc1F | -0.3 | ·

Compounds as they come. About 0.41% of those tested had a hit in this group.
